CtBP-E1A blk: blocks the CtBP interaction with E1A. actives 0.49% (n = 340,000). activity change, % (test concentration not listed). AlphaScreen GST-E1A/His-CtBP binding, 1536-well; hits give low values; control for the full effect not named in the record; in the data active means activity change below about -65%; inconclusive means about -30% to -65%; inactive means above about -30%; note: % is set by controls: 0 for no effect and ±100 for the full control effect; compound concentration not given in the record
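Homogeneous bead-based format: GST-tagged E1A captured on glutathione donor beads, His-tagged CtBP on nickel acceptor beads; compounds precede bead addition by 2 h at 37 °C.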
gsp antagonist: gsp mutant antagonism; gsp-mutant cells, cAMP HTRF, 30 min; control for the full effect not named in the record; Potency, µM (titrated, usually from 76.9 µM), inactives show at the top dose activity change, negative = inhibition, actives largely listed as inhibitors; actives 0.4% (n = 340,000); active = falling curve of any shape with a large fitted effect; inconclusive = falling curve, mostly with a smaller effect; inactive = flat or rising curve; cell line not stated here;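 note: intracellular cAMP measured with PDE inhibitor Ro 20-1724 present during compound exposure; potency is the fitted concentration of half-maximal effect; % is set by controls: 0 for no effect and ±100 for the full control effect; nearly all actives have a fitted effect of over 65% in size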
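Cells in G418 medium, seeded 16-24 h, 37C; buffer exchange to DPBS + 1 mM CaCl2, 0.5 mM MgCl2, 0.05% BSA; cpds in DMSO + […] (300 uM stock), 30 min 37C; HTRF cAMP detection.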
Six1-Eya2 inh: blocks human Six1 binding to Eya2 | AlphaScreen GST-Six1/His-Eya2 binding, biochemical; hits give low values; control for the full effect not named in the record | AID 651725 | actives 0.56% (n = 360,000) | activity change, % (test concentration not listed); in the data active = activity change below about -65%; inconclusive = about -30% to -65%; inactive = above about -30%; note: % is set by controls: 0 for no effect and ±100 for the full control effect; compound concentration not given in the record
Target sequence (O00167 whole entry, looked up): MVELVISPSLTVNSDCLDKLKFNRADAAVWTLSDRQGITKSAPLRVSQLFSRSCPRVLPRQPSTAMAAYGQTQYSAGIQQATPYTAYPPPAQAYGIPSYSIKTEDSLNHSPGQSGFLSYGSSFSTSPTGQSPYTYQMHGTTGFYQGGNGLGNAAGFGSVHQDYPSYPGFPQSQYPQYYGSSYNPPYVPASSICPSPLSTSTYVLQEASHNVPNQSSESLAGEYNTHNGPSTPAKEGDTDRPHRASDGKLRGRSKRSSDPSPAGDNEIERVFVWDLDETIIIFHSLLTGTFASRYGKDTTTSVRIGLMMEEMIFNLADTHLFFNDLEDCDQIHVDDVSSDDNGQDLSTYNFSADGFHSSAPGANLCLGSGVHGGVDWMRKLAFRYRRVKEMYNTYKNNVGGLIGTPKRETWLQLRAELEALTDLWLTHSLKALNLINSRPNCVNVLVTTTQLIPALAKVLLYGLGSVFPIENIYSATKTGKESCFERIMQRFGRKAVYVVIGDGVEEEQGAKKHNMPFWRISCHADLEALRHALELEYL
Target sequence (Q15475 whole entry, looked up): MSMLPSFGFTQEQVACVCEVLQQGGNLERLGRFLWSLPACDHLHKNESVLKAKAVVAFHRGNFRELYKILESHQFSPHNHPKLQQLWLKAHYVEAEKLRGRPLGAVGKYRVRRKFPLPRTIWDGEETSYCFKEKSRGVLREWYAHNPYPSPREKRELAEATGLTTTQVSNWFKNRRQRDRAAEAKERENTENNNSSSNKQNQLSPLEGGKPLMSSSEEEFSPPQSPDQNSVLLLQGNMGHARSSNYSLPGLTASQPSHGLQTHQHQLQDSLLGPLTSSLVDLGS
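AlphaScreen with GST-Six1 and His-Eya2 (5X mix: 250 nM and 500 nM), glutathione donor and nickel acceptor beads; buffer 50 mM Tris pH 8.0, 300 mM NaCl, 1 mM TCEP; 1 h at 37 C in the dark.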
gsp ag: agonists of gsp mutant (McCune-Albright syndrome); gsp mutant cells, cAMP HTRF, 30 min; control for the full effect not named in the record; Potency, µM (series often up to 76.9 µM), for the others: top-dose activation (cAMP increase), hits mostly activators; actives 0.13% (n = 340,000); AID 624287; active = well fitted activation curve with a large enough effect; inconclusive = small, poorly fitted or top-dose-only effect, or another doubt; inactive = no such curve, though single readings can be large or run the other way; cell line not stated here;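 note: phosphodiesterase inhibitor Ro 20-1724 added with compounds to block cAMP breakdown; potency is the fitted concentration of half-maximal effect; nearly all actives have a fitted effect of over 60% in size; about a fifth of the inactives were tested at one dose only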
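Cells in DMEM/10% FBS with G418 were pretreated with compounds in DMSO plus […] (300 uM stock) for 30 min at 37C. cAMP was measured by HTRF (cAMP-d2 plus anti-cAMP antibody-K) after 30 min at room temperature.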
D2 potentiator: human D2 receptor positive allosteric modulation | P14416 | DiscoveRx D2 beta-arrestin cells, luminescence, 90 min; 100% = 57 uM dopamine signal | potentiation, % (concentration not given with the values) | actives 0.23% (n = 360,000) | AID 624464; active = potentiation of 50% or more; inconclusive = 30% to 50%; inactive = 30% or less;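 note: compound concentration not given in the record; tested on top of an EC20 dose of dopamine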
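PathHunter beta-arrestin assay in DiscoveRx D2 cells. Compounds were added with an EC20 of dopamine (50 nM final) for 90 min at 37 deg C. Luminescence was read 1 h after detection reagent, with 57 uM dopamine as the EC100 control.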
D2 ag: activates the human D2 dopamine receptor; P14416; DiscoveRx PathHunter D2 beta-arrestin, luminescence, 90 min; 100% = 57 uM dopamine signal; activation, % (test concentration not listed); actives 0.084% (n = 360,000); in the data active = activation above about 40%; inconclusive = about 15% to 40%; inactive = below about 15%; note: compound concentration not given in the record; the text of the record calls up to 30% inactive
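Agonist mode: compounds alone added to overnight-plated D2 PathHunter cells for 90 min at 37 C, with 57 uM final dopamine (EC100) defining full response. Beta-arrestin recruitment detected by chemiluminescent reagent, read after 1 h at ambient temperature.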
The depositor's hits bear a star; ? = inconclusive; nt = no result given; [ ] = another dose, or the depositor's remark.

SMILES	CtBP-E1A blk	gsp antagonist	Six1-Eya2 inh	gsp ag	D2 potentiator	D2 ag
C=CCn1c(SCC#N)nc2c(c1=O)C(C)(C)Cc1ccccc1-2	5	-11%	5	-27%	-5	-0.2
CCC(CC)COC(=O)C1=C(C)NC(=O)NC1c1ccc2c(c1)OCO2 (stereo not drawn)	1	-9%	-5	-3%	2	2.7
CCn1ncc(Br)c1C(=O)Nc1ccc2c(c1)OCCO2	-5	-6%	21	4%[15.4 µM]	-5	-3.2
COc1ccc(OC)c(CCNC(=O)c2nn(C)c3c2CS(=O)(=O)c2ccccc2-3)c1	-3	-15%	-4	?	3	0.0
Cn1c2ccccc2c2nnc(SCc3ccc4nonc4c3)nc21	0	4%	1	-9%	3	2.6
O=C(NCC1COc2ccccc2O1)c1ccc(NC(=O)c2ccco2)cc1 (stereo not drawn)	0	-17%	-11	-26%	1	1.6
CCc1cc(=O)oc2cc(C)cc(OCC(=O)N3CCC(C(=O)O)CC3)c12	3	12%	-1	nt	1	-1.5
CCn1c(C(=O)N2CCCC(C(=O)O)C2)cc2sccc21 (stereo not drawn)	3	-2%	4	11%	-16	-4.7
O=C(NC(=O)c1ccccc1)OCCN1C(=O)c2ccccc2C1=O	9	-2%	6	29%[15.4 µM]	-2	-3.3
O=C(Cn1nnc2ccccc21)NNC(=O)c1ccccc1	5	8%	8	-6%[15.4 µM]	-5	-4.5
O=C(NCC(=O)N1CCN(c2ncccn2)CC1)c1cccs1	-4	13%	1	9%	-9	-1.2
O=C(CSc1nc2ccccc2o1)NCC(=O)c1ccccc1	0	1%	23	-5%	-3	-3.3
Cc1ccnc2nc(C(=O)Nc3nc4ccccc4s3)nn12	-7	-11%	1	5%[15.4 µM]	-6	-2.8
O=C(/C=C/c1cccc([N+](=O)[O-])c1)c1ccc2c(c1)OCCO2	-11	14%	-8	-31%	-20	-3.0
Cc1ccnc(SCC(N)=O)n1	11	4%	-4	-18%[15.4 µM]	7	1.1
COC(=O)c1ccc(Oc2nc(Nc3ccc(C)c(C)c3)nc(N(C)C)n2)cc1	-8	-6%	-9	-19%	-8	-2.2
O=C(Nc1ccc(N2CCOCC2)cc1)c1ccc(COc2ccccc2)cc1	-22	0%	-13	5%	-2	7.6
O=C(CSc1ccc(-c2nc3ccccc3[nH]2)cn1)Nc1ccc(S(=O)(=O)NC2CC2)cc1	0	-24%	?	?	4	7.6
COCCNC(=O)c1ccc(CN2CCC(Cc3ccccc3)CC2)cc1	9	8%	2	-4%[15.4 µM]	-11	-1.4
Cc1cccc(NC2(C(F)(F)F)N=C3SCCN3C2=O)n1 (stereo not drawn)	7	4%	-1	5%	-10	-1.8

Just gsp ag and D2 potentiator, for some of the entries so far:
SMILES | gsp ag | D2 potentiator
C=CCn1c(SCC#N)nc2c(c1=O)C(C)(C)Cc1ccccc1-2 | -27% | -5
CCC(CC)COC(=O)C1=C(C)NC(=O)NC1c1ccc2c(c1)OCO2 (stereo not drawn) | -3% | 2
CCn1ncc(Br)c1C(=O)Nc1ccc2c(c1)OCCO2 | 4%[15.4 µM] | -5
COc1ccc(OC)c(CCNC(=O)c2nn(C)c3c2CS(=O)(=O)c2ccccc2-3)c1 | ? | 3
Cn1c2ccccc2c2nnc(SCc3ccc4nonc4c3)nc21 | -9% | 3
O=C(NCC1COc2ccccc2O1)c1ccc(NC(=O)c2ccco2)cc1 (stereo not drawn) | -26% | 1
CCc1cc(=O)oc2cc(C)cc(OCC(=O)N3CCC(C(=O)O)CC3)c12 | nt | 1

Continued:
SMILES	CtBP-E1A blk	gsp antagonist	Six1-Eya2 inh	gsp ag	D2 potentiator	D2 ag
CC1CCC(N2CCN(S(=O)(=O)Cc3ccccc3)CC2)CC1 (stereo not drawn)	-1	4%	7	-20%	-5	3.1
Cc1ccc(C)c(Nc2cc(C)nc3ncnn23)c1	0	5%	-6	13%[15.4 µM]	-4	-3.1
COC(=O)c1c(C(=O)OC)c2ccccn2c1C(=O)c1ccc([N+](=O)[O-])cc1	-26	-7%	?	2%[15.4 µM]	21	3.0
COc1ccc(C2C(C#N)=C(N)Oc3n[nH]c(C)c32)cc1Cn1nnc2ccccc21 (stereo not drawn)	-9	3%	-1	5%	-13	-0.9
CCc1ccccc1NC(=O)N1CCCc2ccccc21	10	-3%	5	17%	10	-3.3
COc1ccc(NC(=O)CSc2ccc(NC(C)=O)cc2)cc1S(=O)(=O)N1CCOCC1	-10	-2%	0	-9%	-4	-1.7
Cc1cc(C(=O)Nc2sc3c(c2C#N)CCC(C)C3)no1 (stereo not drawn)	6	11%	2	12%	-6	2.3
Cn1cc(NC(=O)OCc2ccc(Cl)cc2)c(C(F)(F)F)n1	14	13%	7	13%	-5	-4.0
COc1ccc(N2C(=O)C(CC(=O)Nc3ccccc3)N(CCc3ccc(OC)c(OC)c3)C2=O)cc1 (stereo not drawn)	0	0%	1	-99%[inhibitor]	-11	-2.2
COC(=O)c1nn(-c2cccc(Cl)c2)cc(OC)c1=O	-16	2%	-13	?	-7	-3.9
O=S(=O)(c1cccc(-c2nnc(-c3cccnc3)o2)c1)N1CCCCC1	?	3%	?	?	2	-0.6
COc1ccc(OC)c(CCNC(=O)c2ccc(CS(=O)Cc3ccc(Cl)cc3)o2)c1 (stereo not drawn)	-12	?	-6	7%	-4	-3.0
CCCCN(CCCC)CCNC(=O)c1cn(C)c2ccc(S(=O)(=O)N(C)C3CCCCC3)cc2c1=O	nt	0%	-2	-10%	-6	-2.6
O=C1c2ccccc2C(O)N1c1cccnc1 (stereo not drawn)	6	-2%	5	25%	-9	-6.4
COc1ccc(CNC(=O)c2oc3ccc(S(=O)(=O)N4CCOCC4)cc3c2C)cc1	-1	?	-10	-1%[15.4 µM]	-5	6.2
Cc1ccc(NC(=O)/C=C/c2cccc(C(F)(F)F)c2)cc1	0	-1%	-2	0%[15.4 µM]	-9	-2.6
OCc1nc2ccccc2n1/N=C/c1cccs1	1	0%	4	6%[15.4 µM]	-5	-4.6
CCCCSCc1cc(C(=O)O)oc1C(C)(C)C	0	-19%	21	-24%[15.4 µM]	-9	-3.2
COc1ccc2nc(N3CCC(C)CC3)c(C#N)cc2c1	118	-17%	138	-1%	0	-1.9
CC(Oc1ccc(Cl)cc1)c1ccn[nH]1 (stereo not drawn)	-16	6%	13	?	7	-0.8
O=[N+]([O-])c1ccc(Oc2ccc(F)cc2)c2ccncc12	-18	3%	-26	-10%	-10	1.6
O=C(CSc1nc2c(c(=O)n1-c1ccc(Br)cc1)SCC2)NCC1CCCO1 (stereo not drawn)	4	-3%	9	4%	8	-2.5
CC(C)(C)NC(=O)c1ccc2c(c1)N(CC(=O)N1CCCCC1)C(=O)C(C)(C)O2	15	14%	4	-6%[15.4 µM]	12	-2.4
CC(=O)Nc1ccc(C=NNc2ccc([N+](=O)[O-])cc2S(=O)(=O)Nc2ccccc2C(=O)O)cc1	-13	-8%	-4	?	-3	-0.1
CC(Oc1ccccc1)C(=O)OCC(=O)NC(=O)NC1CCCCC1 (stereo not drawn)	nt	3%	1	13%	-2	-1.8
CSc1ccc(CCNC(=O)c2cc(-c3ccccc3)c(N3CCOCC3)s2)cc1	-5	?	-11	-3%	-1	4.8
CCN1CCN(C(=O)c2ccccc2N(Cc2ccccc2)S(C)(=O)=O)CC1	5	-4%	3	-35%[inhibitor]	-6	-1.6
CCOc1ccc(C(O)c2nccn2C)cc1 (stereo not drawn)	-9	10%	1	2%	-10	-3.0
COc1ccc(C2OC(=O)CC2C(=O)NC2CCCCCC2)cc1OC (stereo not drawn)	-4	-3%	-1	15%	-5	-2.4
O=C(C[C@H]1C[C@@H]2c3cc(NS(=O)(=O)c4ccccc4)ccc3O[C@@H]2[C@H](CO)O1)N1CCOCC1	6	nt	3	?	7	0.8
CCOC(=O)CC1(c2ccccc2)CCOC(C)(C)C1 (stereo not drawn)	-2	-2%	2	-16%	-2	-1.2
COc1ccc(C2C3=C(CCCC3=O)Nc3ccc4ncccc4c32)cc1OC (stereo not drawn)	-2	-8%	-24	4%[15.4 µM]	-3	-1.8
CCCn1[nH]cc(SC)c(=O)c1=O	6	3%	0	?	12	-0.3
O=C(NNS(=O)(=O)c1ccc(F)cc1)c1cnn(-c2ccccc2)c1C(F)(F)F	nt	-5%	1	-9%	2	1.2
O=C(NNS(=O)(=O)c1ccc2ccccc2c1)NC1CCCCC1	-6	-7%	1	0%	14	-2.4
CN(Cc1ccccc1)C(=O)c1nc2ccccn2c1CNCCCOc1cccnc1	4	-23%	-2	14%	-20	-1.2
Cc1oc(-c2cc(F)ccc2F)nc1CN1CCN(C)C(=O)[C@@H]1C	0	9%	3	?	-8	1.4
CCc1nnc(NC(=O)Cn2nc(-c3ccc(OC)c(OC)c3)ccc2=O)s1	6	19%	0	?	-13	-0.9
c1ccc(Nc2cccc3c(Nc4ccccc4)cccc23)cc1	-13	3%	-18	17%	0	2.8
CC(=O)c1cnc2nc(C(F)(F)F)nn2c1C	3	1%[15.4 µM]	0	-42%[inhibitor]	0	-1.7

Ordered by the number under gsp ag (smallest number first): three from the list above.
canonical_smiles | CtBP-E1A blk | Six1-Eya2 inh | gsp ag | D2 potentiator | D2 ag
O=C(NNS(=O)(=O)c1ccc(F)cc1)c1cnn(-c2ccccc2)c1C(F)(F)F | nt | 1 | -9% | 2 | 1.2
CC(Oc1ccccc1)C(=O)OCC(=O)NC(=O)NC1CCCCC1 (stereo not drawn) | nt | 1 | 13% | -2 | -1.8
CN(Cc1ccccc1)C(=O)c1nc2ccccn2c1CNCCCOc1cccnc1 | 4 | -2 | 14% | -20 | -1.2

Additional entries
SMILES	CtBP-E1A blk	gsp antagonist	Six1-Eya2 inh	gsp ag	D2 potentiator	D2 ag
Cc1ccc(S(=O)(=O)Nc2cccc3c2O[C@H](CN(C)C(=O)Nc2ccc(C(F)(F)F)cc2)[C@@H](C)CN([C@H](C)CO)C3=O)cc1	0	?	-9	nt	nt	-1.8
COc1ccccc1NS(=O)(=O)c1ccc(C(=O)NCC(c2ccccc2OC)N(C)C)cc1 (stereo not drawn)	12	14%	1	-6%	-15	-3.7
O=C(CC1Sc2ccccc2NC1=O)OCc1cc(=O)oc2cc(O)ccc12 (stereo not drawn)	-20	-12%	-17	0%	-3	6.4
COc1ccc(CN(Cc2ccccn2)S(=O)(=O)c2ccc(-n3cnnn3)cc2)cc1	-3	-23%	-7	-5%[15.4 µM]	0	5.6
CCc1ccc(/C([O-])=C(/C(=S)NCCN2CCOCC2)[n+]2ccccc2)cc1	-10	2%	1	-6%	-2	-5.7
Cc1ccccc1OCC(=O)N/N=C1\CC(=O)CC(C)(C)C1	-11	1%	-3	11%	-2	-1.2
CCOC(=O)c1ccccc1NC(=O)c1cc2ccccc2o1	nt	-4%	6	-8%	2	-1.3
Cc1cc2c(ncn2C(C)C)c(NS(=O)(=O)c2ccc(F)cc2)c1C	0	-7%	7	20%[15.4 µM]	-1	-22
COc1ccccc1C#Cc1ccc2c(=O)c3ccccc3n(C)c2c1	-10	5%	6	nt	-8	-2.2
Cc1ccc(CCNC(=O)C2CCN(C(=O)c3sccc3-n3cccc3)CC2)cc1	-2	-9%	-4	7%	-10	-0.3

An unsorted share of the library; 1.4% or so of the library scored in one or more.
